# FGF22 binding – binders of human FGF22 protein, primary screen, FGF22 synaptogenesis inhibitor project, biophysical, thermal shift, single point. recombinant FGF22 thermal shift, SYPRO orange fluorescence; percent of sucrose octasulfate shift, DMSO zero. calls only at 9.99 µM. 1.5% of 340,000 active. AID 651658, 2012;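 active means melting point raised past a set limit in the mean and every replicate; three in four hits are not shown here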
# Target sequence (Q9HCT0 whole entry, looked up): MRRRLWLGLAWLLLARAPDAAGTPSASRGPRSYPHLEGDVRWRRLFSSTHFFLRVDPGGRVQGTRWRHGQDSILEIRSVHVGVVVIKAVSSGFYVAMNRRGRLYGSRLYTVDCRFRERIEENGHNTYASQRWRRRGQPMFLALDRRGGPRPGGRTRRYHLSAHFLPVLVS
# ALR H2O2 inh – inhibitors of human ALR sulfhydryl oxidase, primary screen, biochemical, H2O2 detection, HRP-luminol luminescence, single point. purified ALR, DTT oxidation. inhibition, % (concentration not given with the values). 3.8% of 290,000 active;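 active means mean and each replicate at 75% or more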;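 further: stock transfer was 7.5 nL into about 7.5 µL; 0% = neutral wells and 100% = wells with inactivated enzyme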
# Beta2AR agonist – beta2AR agonists driving receptor internalization, primary screen, cell-based, FAP fluorogen, flow cytometry; response, % (no concentration beside the values); Beta-2 adrenergic receptor (Homo sapiens), P07550; 0.43% of 340,000 active; Am2.2-beta2AR cells; reference of the scale not given here;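 active means response above a set limit, near 3 SD of response in nonfluorescent compounds, cut at about 42% in these data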;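 further: stock transfer was 100 nL into about 11 µL; a reference agonist was the positive control; negative values mostly stem from fluorescent compounds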
# Target sequence (P07550 whole entry, looked up): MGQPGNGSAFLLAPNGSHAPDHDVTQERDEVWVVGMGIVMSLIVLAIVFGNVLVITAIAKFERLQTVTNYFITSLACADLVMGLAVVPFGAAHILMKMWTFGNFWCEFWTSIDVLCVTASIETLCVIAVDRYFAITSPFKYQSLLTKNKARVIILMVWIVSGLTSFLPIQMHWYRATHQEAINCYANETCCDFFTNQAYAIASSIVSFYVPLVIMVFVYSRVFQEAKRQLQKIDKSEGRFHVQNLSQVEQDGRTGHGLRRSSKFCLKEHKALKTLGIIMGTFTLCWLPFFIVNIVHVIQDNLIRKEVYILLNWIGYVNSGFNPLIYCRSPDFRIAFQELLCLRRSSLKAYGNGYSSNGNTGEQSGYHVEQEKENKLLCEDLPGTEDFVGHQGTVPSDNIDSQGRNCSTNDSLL
# Ecoli growth – E. coli growth inhibition, primary screen, OD600. Escherichia coli growth, 23 h; stronger effect = lower value. OD600 absorbance (test concentration not listed). 0.21% of 330,000 active. AID 1053175, 2014;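 active means OD600 absorbance below the run mean of sample wells minus 3.6 SD, in any replicate, cut at about 0.56 in these data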;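 further: stock transfer was 300 nL into about 60 µL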
# UCH37 DUB inh – inhibitors of human UCH37 deubiquitinase, primary screen, biochemical, Ub-AMC cleavage, fluorescence; Ubiquitin carboxyl-terminal hydrolase isozyme L5 (Homo sapiens), Q9Y5K5; purified proteasome/UCH37; inhibition, % (concentration not given with the values); 0.33% of 330,000 active; AID 588478, 2011;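 active means mean of two replicates above 20%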;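 further: 0% = compound-free wells with enzyme and 100% = wells lacking proteasome; stock transfer was 100 nL into about 20 µL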
# Target sequence (Q9Y5K5 whole entry, looked up): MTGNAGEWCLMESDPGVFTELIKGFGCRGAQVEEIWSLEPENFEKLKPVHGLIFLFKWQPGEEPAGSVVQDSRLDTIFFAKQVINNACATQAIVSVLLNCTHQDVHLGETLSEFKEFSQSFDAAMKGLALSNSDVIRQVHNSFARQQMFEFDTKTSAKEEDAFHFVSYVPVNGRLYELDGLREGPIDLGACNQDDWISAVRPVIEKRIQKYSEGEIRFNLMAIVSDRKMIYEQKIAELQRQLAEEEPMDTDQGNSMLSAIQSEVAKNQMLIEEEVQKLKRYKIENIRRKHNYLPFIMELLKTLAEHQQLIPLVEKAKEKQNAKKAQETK
#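 Assay system: Proteasome-bound UCH37. Buffer or medium: pH 7.4 Tris-HCl (50 mM) with ovalbumin, ATP-MgCl2, DTT. Incubation: 30 min preincubation with enzyme, 25 min cleavage at room temperature. Measured by: fluorescence, ex 355 nm, em 460 nm. Read-out basis: percent inhibition. Control set: wells without proteasome as full block, compound-free enzyme plus substrate as uninhibited.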
# HNF4A DNA FP – change in binding of human HNF4A to DNA, primary screen, biochemical, fluorescence polarization, FITC-DNA | Hepatocyte nuclear factor 4-alpha (Homo sapiens), P41235 | 1 h | activity change, % at 10 µM | 0.3% of 360,000 active | AID 1224865, 2016; in the data active means activity change above about 30%, passing the limit was not always enough;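 further: controls were the assay level and a saturating level of protein; the project sought stronger binding though the title names inhibitors; some compounds called inactive have numbers as strong as hits; positive values seem to mean higher polarization but the record does not say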
# rRNA inh HTS – reduced GFP signal of wild-type E. coli, primary screen, bacterial rRNA inhibitor project, GFP/RFP fluorescence, OD600, single point | 1.6% of 350,000 active | GFP signal change (wild-type ribosome), % (no concentration beside the values) | E. coli WT GFP vs humanized-ribosome RFP mutants, 24 h; stronger effect = lower value; DMSO median 0, no signal -100;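 active means significant combined selectivity score with lowered wild-type GFP, culture density cut under 30%, mutant RFP and density less affected; inactive means any of these conditions unmet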; further: one replicate is shown; some compounds called inactive have numbers as strong as hits
# rRNA inh HTS OD600 – further read-out of rRNA inh HTS, marked with its call; OD600 change, %; measured here: OD600 growth;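 optical density of the mix in the first replicate; 0 = DMSO median and -100 = no signal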
# rRNA inh HTS RFP – also measured in rRNA inh HTS; calls as there; RFP signal change, %; measured here: RFP humanized mutant strains;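 first replicate; 0 = DMSO median and -100 = no signal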
# * hit, by the source's call; i = inactive; nt = not tested or not shown.
SMILES	ALR H2O2 inh	UCH37 DUB inh	HNF4A DNA FP	rRNA inh HTS	rRNA inh HTS OD600	FGF22 binding	Ecoli growth	Beta2AR agonist	rRNA inh HTS RFP
COc1cccc(CN(C)CC(=O)NCc2ccc(C)cc2)c1	-8	1.5	2.6	-4	-7	i	0.61	-5	2.5
CCc1ccc(NC(=O)CC2NCCNC2=O)cc1 (configuration not stated)	0	1.9	-2.6	12	7	i	0.71	4	-7.0
COC(=O)C1C2CCC(C2)C1C(=O)OCC(=O)c1ccc(C)cc1 (configuration not stated)	-17	0.7	1.8	nt	nt	nt	0.64	0	nt
O=C(NCCc1cccnc1)C1CCC(=O)N(Cc2cccc(C(F)(F)F)c2)C1 (configuration not stated)	-2	1.7	1.1	9	7	i	0.71	16	0.7
N#Cc1nc(COc2ccc(Br)cc2)oc1NCCCn1ccnc1	-5	-2.8	2.4	nt	nt	nt	0.64	-11	nt
COc1ccc(CN2CCN(C(=O)c3ccc(F)cc3)CC2)c(OC)c1	4	4.3	1.4	6	1	i	0.71	-2	0.6
O=C(CCc1nnc(Cc2ccc3c(c2)OCO3)o1)NC(c1ccccn1)C(F)(F)F (configuration not stated)	1	1.0	0.8	6	3	i	0.69	7	0.9
C=CCn1c(SCC(=O)/C(C#N)=C(\C)N)nnc1C1CCCCC1	0	2.9	-2.2	nt	nt	nt	0.68	-6	nt
O=C(Nc1ccc2c(c1)OCO2)Oc1ccccc1	-14	-0.1	0.2	nt	nt	nt	0.65	-2	nt
Cc1cccc(C)c1NC(=S)N(CCN(C)C)Cc1cccs1	-3	0.7	2.4	-1	-8	i	0.67	6	-3.3
Cc1ccc(S(=O)(=O)NC(=O)C2(C)CCN2C(=O)C2CC2)cc1 (configuration not stated)	nt	nt	2.4	9	17	i	nt	nt	-7.2
CC[C@@]1(C(=O)OC)N[C@H](CN(C)S(=O)(=O)c2ccc(-c3ccccc3)cc2)[C@@H]2C(=O)N(C)C(=O)[C@@H]21	0	2.8	0.5	0	-22	i	0.68	-8	-6.4
CC(=O)c1ccc(S(=O)(=O)N2CCC3(CC2)CC(=O)c2ccccc2O3)cc1	-1	-13	1.0	10	14	i	0.64	2	1.0
O=C(NCc1ccc(F)cc1)c1cc(-c2ccccn2)nc2ccc(S(=O)(=O)N3CCOCC3)cc12	nt	nt	-0.7	13	15	i	nt	nt	1.0
Cc1cccc(NS(=O)(=O)c2cccc3cccnc23)n1	-11	3.6	2.2	10	6	i	0.74	3	0.0
O=C(CSc1nnc(CNc2ccc(F)cc2)n1Cc1ccccc1)NCc1ccco1	nt	5.3	-0.3	nt	nt	nt	0.73	-14	nt
O=C(CCCN1C(=O)/C(=C\c2cccs2)SC1=S)Nc1ccc(O)cc1	2	8.6	0.0	-14	-13	i	0.65	1	-4.4
Cc1ccc2c(c1)OC(=O)CC2c1ccccc1 (configuration not stated)	3	2.3	-0.3	nt	nt	nt	0.72	10	nt
CCCCCCn1c(N(CC)CC)nc2c1c(=O)[nH]c(=O)n2C	9	3.5	-0.7	nt	nt	nt	0.71	-9	nt
O=C(Cn1cncn1)c1ccccc1	1	5.3	0.5	-1	2	i	0.71	-5	6.2
Nc1ccc2c(c1)sc1ccccc12	-8	2.7	4.1	nt	nt	nt	0.66	4	nt
CCCCC[C@H](O)/C=C/[C@@H]1[C@@H](C/C=C\CCCC(=O)OC)[C@@H](O)C[C@H]1O	nt	0.6	3.4	nt	nt	nt	nt	-2	nt
CCSCCOC(=O)C1=C(C)NC(=O)NC1c1cccc(OC)c1OC (configuration not stated)	-5	-4.7	-0.7	1	-9	i	0.68	4	-0.7
N#Cc1cccc(CN2CCCN(Cc3ccc(F)cc3)S2(=O)=O)c1	-8	-1.3	1.4	-9	-17	i	0.68	1	0.9
CC(C)Cc1nnc(NC(=O)Cc2ccccc2[N+](=O)[O-])s1	-1	4.9	0.2	9	13	i	0.65	-6	-1.7
O=C1/C(=C/c2ccccc2)CCc2ccc(Cl)nc21	nt	nt	-2.1	-70	-75	i	nt	-2	-31
Cc1[nH]c(=O)[nH]c(=O)c1S(=O)(=O)N1CCCC(C(=O)NCCc2ccc(Cl)cc2)C1 (configuration not stated)	-9	1.6	2.3	nt	nt	nt	0.7	-3	nt
COc1cccc(Nc2nnc(SCC(=O)Nc3sccc3C(N)=O)s2)c1	2	3.9	-0.5	-17	-10	i	0.66	11	3.7
COc1cccc(CNc2nc3cc(C(C)=C(C)C)sc3c(=O)n2C)c1	nt	nt	0.5	-3	-2	i	nt	nt	0.0
O=C(CN1C(=O)C2CC=CCC2C1=O)NCc1ccc2c(c1)OCO2 (configuration not stated)	3	1.1	-1.5	nt	nt	nt	0.72	5	nt
Cc1ccnc(NS(=O)(=O)c2ccc(NC(=O)C3C4C=CC(C4)C3C(=O)O)cc2)n1 (configuration not stated)	-4	0.1	-1.7	8	14	i	0.65	10	0.3
CC(OC(=O)c1ccc(NS(=O)(=O)c2ccc3[nH]c(=O)[nH]c3c2)cc1)C(=O)Nc1ccc(Cl)cc1 (configuration not stated)	-8	nt	1.4	-8	-19	i	nt	3	-0.1
CCn1c(=NC(=O)CS(=O)(=O)c2ccc(F)cc2)sc2cccc(OC)c21	-3	-2.1	6.7	-20	-43	i	0.68	4	3.5
Cn1cc(C(=O)C(=O)NC2CCCCC2)c2ccccc21	1	4.8	-2.8	-14	-14	i	0.71	-8	2.1
CCc1cc(C(=O)N2CCCC(C(=O)c3ccc(Oc4ccccc4)cc3)C2)n(C)n1 (configuration not stated)	0	3.4	0.0	-10	-33	i	0.66	-10	6.6
Cc1ccc(NC(=O)C2CCC(CNC(=O)[C@@H]3Cc4ccccc4CN3)CC2)c(C)c1 (some centres not stated)	-4	3.3	-0.3	1	6	i	0.64	9	0.9
O=C(c1ccc(O)cc1)c1ccc(Cl)cc1	2	7.1	2.5	nt	nt	nt	0.7	-3	nt
COc1ccc(CCNC(=O)CCC(=O)n2ncc3ccc(Cl)cc32)cc1OC	7	-0.6	6.4	3	4	i	0.63	18	-0.6
CCC/C(=N\NC(=O)CCC(=O)NCc1ccccc1)c1ccccc1	-1	nt	-1.9	13	9	nt	nt	1	1.7
O=C(NNC(=O)c1cccs1)Nc1cccc(Cl)c1	47	nt	2.6	nt	nt	nt	nt	8	nt
C=CC[C@@H](CC(=O)OC(C)(C)C)C(=O)OC[C@H]1CCCN1C(=O)[C@@H](CC=C)CC(=O)N(CCO)Cc1ccccc1	-6	0.7	2.1	4	-5	i	nt	0	-4.1
O=C1CCC(c2ccccc2)(c2ccccc2)CC1	-21	2.7	-1.1	-7	-14	i	0.68	2	1.0
CCc1nc2c(OCCc3cccc(OC)c3)cccn2c1N(C)C(=O)c1cccs1	nt	nt	5.0	-12	-49	i	nt	nt	11
Cc1c(NC(=O)C(C)OC(=O)/C=C/c2ccc3c(c2)OCO3)c(=O)n(-c2ccccc2)n1C (configuration not stated)	57	-72	-0.4	4	3	i	0.61	-14	-0.5
CCc1ccc(NC(=O)C(=O)NCCOc2ccccc2Cl)cc1	-18	6.3	4.0	16	20	nt	0.69	-5	2.5

# The list goes on; the last 4 above are carried over.
SMILES	ALR H2O2 inh	UCH37 DUB inh	HNF4A DNA FP	rRNA inh HTS	rRNA inh HTS OD600	FGF22 binding	Ecoli growth	Beta2AR agonist	rRNA inh HTS RFP
O=C1CCC(c2ccccc2)(c2ccccc2)CC1	-21	2.7	-1.1	-7	-14	i	0.68	2	1.0
CCc1nc2c(OCCc3cccc(OC)c3)cccn2c1N(C)C(=O)c1cccs1	nt	nt	5.0	-12	-49	i	nt	nt	11
Cc1c(NC(=O)C(C)OC(=O)/C=C/c2ccc3c(c2)OCO3)c(=O)n(-c2ccccc2)n1C (configuration not stated)	57	-72	-0.4	4	3	i	0.61	-14	-0.5
CCc1ccc(NC(=O)C(=O)NCCOc2ccccc2Cl)cc1	-18	6.3	4.0	16	20	nt	0.69	-5	2.5
COc1cc(-c2nnc(SCC3(c4ccccc4)OCCO3)o2)cc(OC)c1OC	-19	0.7	0.0	nt	nt	nt	0.69	25	nt
O=C(CCSc1ccccc1)NCC1CCCO1 (configuration not stated)	0	0.7	-3.6	nt	nt	nt	0.74	-5	nt
COc1ccc(-c2cc(C(=O)NC3CCCCC3)no2)cc1OC	3	-0.8	0.6	8	9	i	0.68	-6	-1.6
Cc1cc(=O)oc2cc(OCC(=O)Nc3ccc(CN4CCOCC4)cc3)ccc12	-7	-1.0	3.4	2	8	i	0.68	-4	-1.4
COc1cc(CNCCNCC(C)O)ccc1OCc1ccc(Cl)nc1 (configuration not stated)	nt	-1.8	0.1	12	7	i	0.73	-17	0.1
CC(C)N1CCN(Cc2coc3ccccc3c2=O)CC1CCO (configuration not stated)	-2	0.0	5.2	nt	nt	nt	0.69	-4	nt
FC(F)(F)c1cccc(-c2cc(C3CCNCC3)[nH]n2)c1	nt	5.3	6.0	-19	-25	i	0.63	9	7.4
Cc1ccc(N(CC(=O)Nc2ccccc2C(=O)N2CCOCC2)S(C)(=O)=O)cc1	-19	3.8	-2.2	nt	nt	nt	0.72	-3	nt
CCCCc1c(C)nc2c(OC)cccc2c1SCCC(=O)O	-3	-21	-0.3	nt	nt	nt	0.7	3	nt
CN(C)/C=C1\NC(=S)N(c2ccccc2)C1=O	55	19	5.0	16	12	nt	0.69	-1	0.8
NC(=O)CC(NC(=O)Cc1cccc2ccccc12)c1ccc(NCCN2CCCCC2)c([N+](=O)[O-])c1 (configuration not stated)	0	5.6	1.3	8	4	i	0.75	-1	4.1
C=CCn1c(CCC(=O)O)ccc1-c1ccccc1	51	-5.5	-0.1	-12	-7	i	0.7	1	-3.4
Cc1cc(NC(=O)CCC(=O)N(C2CC2)C2(C(=O)NC3CCCC3)CCC(C)CC2)no1 (configuration not stated)	6	3.0	-5.2	nt	nt	nt	0.71	5	nt
COc1ccc(-c2nc(-n3c(C)c(C(C)=O)c(C(C)=O)c3C)sc2C)cc1OC	-8	1.3	0.2	nt	nt	nt	0.69	-1	nt
Cc1cccc(C)c1-c1ccc(CN2C(CC(C)C)C(=O)N(Cc3cn(CCO)nn3)CCS2(=O)=O)cc1 (configuration not stated)	nt	nt	4.7	4	9	i	nt	5	0.1
CC(C)c1ccc(C(C(=O)NC2CCCC2)N(C(=O)c2csnn2)C2CC2)cc1 (configuration not stated)	-4	-0.2	0.6	-3	0	i	0.71	10	-2.3
COc1ccc(C(=O)NCc2cn3ccsc3n2)cc1OC	-3	2.9	-0.2	1	7	i	0.64	0	-8.5
CCOc1ccc(NC(=O)CSc2nnc(CNC(=O)c3ccco3)o2)cc1	-1	-0.2	-0.4	6	5	i	0.69	-10	0.3

# Source: PubChem (several laboratories)

# This is a subset, so the mix of outcomes need not match the whole.
